Screening data: PubChem, National Center for Advancing Translational Sciences (NCATS)
Cruzain noTriton – cruzain (T. cruzi) inhibition without detergent | P25779 | purified cruzain, Z-FR-AMC fluorescence, no detergent | Potency, µM, for the others: max response, negative = inhibition, actives largely listed as inhibitors | 2.3% of 200,000 active | AID 1476; active = well fitted curve in the direction sought with a large enough effect; inconclusive = small, poorly fitted or top-dose-only effect, or another doubt; inactive = no such curve, though single readings can be large; an effect the other way counts as inactive or inconclusive;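 also: plate controls were enzyme without inhibitor for no effect and buffer without enzyme for full effect; nearly all actives have a fitted effect of over 40% in size; top concentration of the series not given in the record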
Target sequence (P25779 123-467 limits assumed): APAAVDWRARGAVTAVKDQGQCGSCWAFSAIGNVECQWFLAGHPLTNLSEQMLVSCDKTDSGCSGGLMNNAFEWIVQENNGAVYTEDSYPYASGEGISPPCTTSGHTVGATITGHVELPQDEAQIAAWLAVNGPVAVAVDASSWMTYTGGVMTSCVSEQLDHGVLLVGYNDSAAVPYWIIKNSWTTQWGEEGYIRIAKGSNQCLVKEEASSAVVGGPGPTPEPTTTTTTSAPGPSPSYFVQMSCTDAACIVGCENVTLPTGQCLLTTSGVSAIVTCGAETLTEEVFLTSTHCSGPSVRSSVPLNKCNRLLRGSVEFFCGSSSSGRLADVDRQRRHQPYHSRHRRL
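Detergent-free condition (0.00005% Triton X-100) in acetate buffer pH 5.5 with DTT. 1.5 nM enzyme and compound were pre-mixed 15 min, then 2 uM Z-FR-AMC substrate added; reaction progress from fluorescence change between first and third reads (60 s).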
2A StopGo – lowers the luciferase signal of an FMDV 2A StopGo reporter | human cells with a luciferase reporter of 2A StopGo recoding; control for the full effect not named in the record | Potency, µM (series often up to 57.9 µM), for inactives: at the highest dose signal change, negative = less light | 1.2% of 410,000 active; active = well fitted falling curve with a large enough effect; inconclusive = small, poorly fitted or top-dose-only effect; inactive = no such curve, though single readings can be large or run the other way; tested in HEK293T cells; also: % is scaled to controls: 0 for no effect and ±100 for the full control effect; nearly all actives have a fitted effect of over 45% in size; luciferase light after 4 h
MARV entry inh – Marburg virus entry inhibition; Potency, µM (highest dose often 37.8 µM), for the others: at the highest dose activity change, negative = inhibition, most hits filed as inhibitors; AID 540276; 1.8% of 300,000 active; Marburg virus pseudotyped entry inhibition, cell reporter; control for the full effect not named in the record; about a third of the inactives were read at about 46 µM; active = well fitted inhibition curve with a large enough effect; inconclusive = small, poorly fitted or top-dose-only effect, or effect the other way; inactive = flat fitted curve, though single readings scatter; tested in HEK293 cells; about a fifth of its hits are not listed in these tables; also: % is scaled to controls: 0 for no effect and ±100 for the full control effect; luciferase read-out
Lassa entry inh – inhibitors of Lassa virus binding or cell entry | Lassa virus pseudotype entry inhibition, cell reporter; control for the full effect not named in the record | Potency, µM (titrated, usually from 37.9 µM), without a hit: at the top dose activity change, negative = inhibition, usual class: inhibitors | 1.2% of 300,000 active; active means well fitted inhibition curve with a large enough effect; inconclusive means small, poorly fitted or top-dose-only effect, or effect the other way; inactive means flat fitted curve, though single readings scatter; tested in HEK293 cells; also: % is scaled to controls: 0 for no effect and ±100 for the full control effect; nearly all actives have a fitted effect of over 50% in size; luciferase read-out
NS1 inh – influenza NS1 inhibition; S. cerevisiae slowed by influenza A NS1, growth recovery by OD600; Potency, µM (titrated, usually from 46.1 µM), for inactives: top-dose activity, positive = more growth; 0.4% of 270,000 active; AID 2326; also: actives are rising curves; nearly all actives have a fitted effect of over 50% in size
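S. cerevisiae expressing influenza A NS1, grown in glucose, washed, then diluted 1:100 into pH 6.0 -URA galactose medium with 23 nl compound. Growth recovery read as OD600; NS1-free strain serves as control.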
SARS PLP yeast – blocks SARS-CoV papain-like protease in a yeast assay. S. cerevisiae expressing SARS-CoV PLpro, growth rescue; control for the full effect not named in the record. Potency, µM (highest dose often 32.9 µM), inactives show at the top dose activity, positive = growth rescue. 0.19% of 330,000 active. AID 485353; also: 0% is about no effect; nearly all actives have a fitted effect of over 55% in size; growth read by luminescence after 48 h
RE007 growth inh – less growth of the S. pombe RE007 Vpr strain | S. pombe RE007 Vpr strain, BacTiter-Glo ATP luminescence, 24 h; control for the full effect not named in the record | Potency, µM (series often up to 92.2 µM), inactives show top-dose activity change, negative = less growth | 0.21% of 360,000 active | AID 651644; active = well fitted falling curve with a large enough effect; inconclusive = small, poorly fitted or top-dose-only effect; inactive = no such curve, though single readings can be large or run the other way;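 also: % is scaled to controls: 0 for no effect and ±100 for the full control effect; nearly all actives have a fitted effect of over 50% in size; the assay follows cell death caused by Vpr and the record does not say whether a fall means rescue or toxicity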
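Fission yeast strain RE007, carrying one chromosomally integrated HIV-1 vpr copy, was seeded at OD 0.01 in PMG+AL medium with 23 nL pinned compound. After 24 h at 30 °C and 99% humidity, viability was read by BacTiter-Glo luminescence.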
Cruzain Triton – inhibitors of Trypanosoma cruzi cruzain with detergent | P25779 | purified cruzain, Z-FR-AMC fluorescence, 0.01% Triton | Potency, µM, inactives show max response, negative = inhibition, most hits filed as inhibitors | 0.43% of 200,000 active | AID 1478; active = well fitted curve in the direction sought with a large enough effect; inconclusive = small, poorly fitted or top-dose-only effect, or another doubt; inactive = no such curve, though single readings can be large; an effect the other way counts as inactive or inconclusive;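 also: plate controls were neutral wells for no effect and buffer without enzyme for full effect; nearly all actives have a fitted effect of over 40% in size; top concentration of the series not given in the record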
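Steps: dispense cruzain (1.5 nM final) in acetate buffer pH 5.5 with DTT and 0.01% Triton X-100; pin-transfer compounds; incubate 15 min RT; add Z-FR-AMC (2 uM final); read fluorescence every 30 s, using the 60 s intensity change.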
* hit, by the source's call; ? = inconclusive; nt = not tested or not shown; & = joins results of further samples; [ ] = remark or other dose. Unless noted, calls follow the shape of the dose curve; as a rule, active means well fitted rising curve with a large enough effect; inconclusive means small, poorly fitted or top-dose-only effect; inactive means no such curve, though single readings can be large or run the other way. Potency is read from the fitted curve at half-maximal effect.

Fields: Lassa entry inh	MARV entry inh	NS1 inh	RE007 growth inh	Cruzain noTriton	2A StopGo	Cruzain Triton	SARS PLP yeast
Cc1ccccc1C(=O)Nc1ccc(N2CCCC2)cc1
→ ?	11%[46.1 µM]	-2%	-11%	nt	43%[activator]	nt	-2%
CSc1ccc(S(=O)(=O)NCC(=O)OCC(=O)NC2(C#N)CCCCC2)cc1[N+](=O)[O-]
→ 20%	?	nt	-4%	nt	-1%	nt	-6%
COc1ccccc1CNC1CCN(Cc2ccccc2)CC1
→ ?	?	8%	4%	nt	-20%	nt	5%
COc1cccc(OC(=O)CSc2nnc(-c3ccc4c(c3)OCO4)o2)c1
→ 3%[46.1 µM]	?	nt	nt	3%	-1%	-4.1%	nt
NC(=O)C1CCN(C(=O)c2cc3c(s2)CCCC3)CC1
→ 19%	?	nt	1%	nt	22%	nt	2%
Cc1cccc(OCC(=O)OCC(=O)c2c(N)n(C)c(=O)n(C)c2=O)c1
→ -1%	0%	-5%	-17%	5%	0%	-3.1%	1%
O=C(Nc1cccc(C(F)(F)F)c1)C1CCCO1 (stereo not given)
→ 0%	-10%	0%	-5%	nt	-12%	nt	0%
COc1ccc(OC)c(Nc2nc(-c3sc(C)nc3C)cs2)c1
→ ?	?	-52%	-15%	22%	-7%	-4.3%	-14%
Nc1ccn(Cc2cccc(Cl)c2)n1
→ -11%	19%[46.1 µM]	nt	25%	nt	3%	nt	0%
CCc1ccc2nc(NC(=O)C3CSC4(C)CCC(=O)N34)sc2c1 (stereo not given)
→ ?	?	nt	15%	nt	13%	nt	-3%
CC(C)OC(=O)c1nn2c(C(F)(F)F)cc(-c3ccc(Br)o3)nc2c1Br
→ -9%	?	5%	-9%	4%	-6%	-0.2%	7%
COc1ccccc1-c1noc(CCCC(=O)NCc2ccco2)n1
→ 1%[46.1 µM]	21%[46.1 µM]	nt	nt	-11%	-8%	-0.7%	nt
CCc1ccccc1NC(=O)CN(C)Cc1nc(N)nc(Nc2ccccc2C)n1
→ 0%	-4%&-4%	-8%	2%	17%	-22%	-1.1%	-6%
COc1ccc(S(=O)(=O)NCC(c2ccco2)S(=O)(=O)c2ccc(C)cc2)cc1C (stereo not given)
→ ?	nt	nt	nt	-3%	69%[activator]	-3.8%	nt
CCOC(=O)CNC(=O)C1(/C=C/c2ccccc2)CC(=O)N1c1ccc(C)cc1 (stereo not given)
→ nt	-10%	-4%	6%	nt	-8%	nt	0%
Fc1cccc(F)c1-c1nc(-c2ccc(Cl)cc2)no1
→ 17%[46.1 µM]	?	2%	1%	nt	49%[activator]	nt	-1%
CCc1ccc(Nc2n[n+](-c3ccccc3)c(-c3ccc(OC)c(Br)c3)s2)cc1
→ nt	nt	10%	29%	nt	0%	nt	-8%
CCCn1c(CN2CCN(C(=O)OCC)CC2)nc2cc([N+](=O)[O-])ccc21
→ ?	?	-3%	8%	nt	?	nt	0%
Cc1cc(C)c(NC(=O)CSc2nnc(CN3CCOCC3)n2C)c(C)c1
→ -19%	4%	?	-4%	nt	14%	nt	0%
CCCOc1ccccc1C(=O)Nc1nc2c(s1)CCCC2
→ ?	?	nt	nt	0%	-13%	-7.9%	nt
COc1ccc(-n2c(N)c(C(=O)NCc3ccco3)c3nc4ccccc4nc32)cc1OC
→ -4%	-17%[46.1 µM]	18%	1%	27%	-10%	-15%	25%
O=C(CCc1nnc(CCCCc2ccccc2)o1)NCCCc1cccnc1
→ 0%	-21%[46.1 µM]	4%	-13%	nt	26%	nt	2%
O=C1CN(S(=O)(=O)c2cccc(Br)c2)CCN1
→ -21%[46.1 µM]	6%[46.1 µM]	nt	-9%	nt	0%	nt	-1%
CCN(CC)C(=O)c1sc2c(c1C)c(=O)n(-c1ccccc1)c(=O)n2CC(=O)Nc1ccc(C)cc1C
→ -3%[46.1 µM]	nt	nt	nt	?	0%	0.5%	nt
Cc1cc(NS(=O)(=O)c2ccc(NC(=S)Nc3ccc(Cl)cc3C)cc2)no1
→ 1%	2%	-2%	-7%	nt	-13%	nt	-1%
C/C(CCC(=O)O)=N/Nc1ccc([N+](=O)[O-])cc1[N+](=O)[O-]
→ 16%	20%	-1%	-8%	-8%	-28%	-9.7%	-31%
COc1ccc(OC)c(-c2csc(-c3c(N)c(C(=O)c4ccccc4)n4ccccc34)n2)c1
→ -17%[46.1 µM]	?	nt	nt	-9%	0%	-1.2%	nt
CCOc1ccc(S(=O)(=O)Nc2nc3ccccc3nc2Nc2ccc(OC)cc2)cc1
→ 25%[46.1 µM]	?	nt	nt	11%	-6%	-2.6%	nt
CC(C)(C)NC(=O)CSc1ccc(C(C)(C)C)cc1
→ 16%	-11%	?	6%	-4%	1%	-2.1%	4%
COc1ccc(/C=N/Nc2cc(C)nc3ccc(OC)cc23)c(OC)c1
→ ?	?	-16%	3%	nt	?	nt	10%
C=CCn1c(NC(=O)c2ccc(Br)o2)c(C(=O)OCC)sc1=S
→ -3%	13%	-42%	-12%	-11%	22%	-5.9%	-1%
COc1ccc(-c2cc(C(=O)N3CCCCCC3)c3cc(C)ccc3n2)cc1
→ nt	nt	-64%	-9%	nt	-8%	nt	-7%
CC1CCN(C(=O)CSc2nc3ncccc3[nH]2)CC1
→ nt	nt	-16%	-3%	nt	34%[activator]	nt	0%
O=C(OCC(=O)N1CCCC1)c1cccs1
→ 14%	?	-5%	5%	-7%	47%[activator]	0.7%	-3%
CC(=O)n1cc(Nc2ccc([N+](=O)[O-])cc2)c2ccccc21
→ 7%	-24%	nt	20%	nt	-28%	nt	-6%
COc1ccccc1NS(=O)(=O)c1cc(NC(=O)c2cccc(S(=O)(=O)N(C)C)c2)ccc1N1CCOCC1
→ -3%	6%	nt	-10%	nt	53%[activator]	nt	1%
Cc1ccc(S(=O)(=O)N(C)Cc2nc(-c3ccccc3)oc2C)cc1
→ 0%[46.1 µM]	nt	nt	nt	-5%	-14%	-4.1%	nt
CCOC(=O)C(=Cc1ccc(-n2ccnc2)cc1)C(=O)OCC
→ ?	?	nt	-26%	nt	22µM*	nt	-23%
O=C(NCC(c1cccs1)N1CCOCC1)c1ccccc1NS(=O)(=O)c1ccc(Cl)cc1 (stereo not given)
→ ?	?	-24%	4%	23%	?	-12%	-3%
Cc1occc1C(=O)NNC(=S)NCc1ccccc1
→ 13%	21%	11%	nt	-3%	18%	-0.3%	0%

Single records (already shown). Screens in order: Lassa entry inh, MARV entry inh, NS1 inh, RE007 growth inh, Cruzain noTriton, 2A StopGo, Cruzain Triton, SARS PLP yeast
Listed for Cc1cc(NS(=O)(=O)c2ccc(NC(=S)Nc3ccc(Cl)cc3C)cc2)no1 = 1%, 2%, -2%, -7%, nt, -13%, nt, -1%
Listed for O=C1CN(S(=O)(=O)c2cccc(Br)c2)CCN1 = -21%[46.1 µM], 6%[46.1 µM], nt, -9%, nt, 0%, nt, -1%
Listed for O=C(OCC(=O)N1CCCC1)c1cccs1 = 14%, ?, -5%, 5%, -7%, 47%[activator], 0.7%, -3%
Listed for Cc1ccc(S(=O)(=O)N(C)Cc2nc(-c3ccccc3)oc2C)cc1 = 0%[46.1 µM], nt, nt, nt, -5%, -14%, -4.1%, nt

(cont.)
Fields: Lassa entry inh	MARV entry inh	NS1 inh	RE007 growth inh	Cruzain noTriton	2A StopGo	Cruzain Triton	SARS PLP yeast
C/C(=N\n1nnnc1Nc1ccccc1)c1ccc(N)cc1
→ nt	0%	-9%	nt	2%	nt	-2.2%	-8%
O=C(CN1CCN(c2ccc(Cl)cc2)CC1)N1CCCC1
→ -2%	-28%[46.1 µM]	?	-7%	-5%	-12%	5.7%	-11%
Fc1ccc(CN2CCN3CCCC3C2C2CCCCC2)cc1F (stereo not given)
→ 13µM*	?	3%	-2%	13%	?	3.7%	5%
CCOC(=O)c1cnc(SC)nc1Oc1cccc(NS(=O)(=O)c2ccc(Cl)cc2)c1
→ ?	18%[46.1 µM]	2%	-26%	?	-28%	-1.5%	2%
COc1ccc(/C=C/C(=O)C2CC2)cc1COc1c(C)cccc1C
→ 2%	-4%[46.1 µM]	nt	-16%	nt	-27%	nt	-23%
Cc1ccc(S(=O)(=O)c2cn(CC(=O)Nc3ccc4c(c3)OCO4)c3ccc(F)cc3c2=O)cc1
→ -7%[46.1 µM]	0%[46.1 µM]	nt	nt	-1%	6%	-7.6%	nt
O=C(CC1N=C2c3ccccc3N=C(SCC(=O)Nc3ccccc3F)N2C1=O)NCc1cccs1 (stereo not given)
→ 15%[46.1 µM]	8%[46.1 µM]	nt	nt	-7%	15%	-5.2%	nt
Cc1cc(F)ccc1NC(=O)c1csc2c1CCC(C)C2 (stereo not given)
→ nt	?	nt	nt	1%	52%[activator]	-1.5%	nt
FC(F)(F)c1cccc(N2CCN(Cc3nnc(-c4ccccc4)o3)CC2)c1
→ ?	-19%[46.1 µM]	nt	nt	?	-6%	-9.3%	nt
Cn1nccc1C(=O)N1CCN(c2ccc(F)cc2)CC1
→ -21%	-6%	3%	-3%	-5%	-4%	-1.4%	-6%
COc1ccc(N2CCN(C(=O)c3nn(C)c4c3CSc3ccccc3-4)CC2)cc1
→ 13%[46.1 µM]	9%[46.1 µM]	nt	nt	4%	-18%	-3.8%	nt
COc1ccc(OCc2cc(C(=O)N3C[C@H]4CC[C@H]3C4)no2)c(Cl)c1
→ -21%	2%[46.1 µM]	-34%	8%	nt	36%[activator]	nt	nt
Cc1ccc(C(C)NC(=O)c2cccs2)cc1C (stereo not given)
→ 9%[46.1 µM]	-3%[46.1 µM]	nt	4%	nt	-13%	nt	nt
